# Compound activity: PubChem, ICCB-Longwood Screening Facility, Harvard Medical School
# RVFV N-RNA inh – inhibitors of RVFV nucleoprotein–RNA binding, primary screen, biochemical, fluorescence polarization. P21700. RVFV N-RNA binding; active compounds read low. % bound, % (test concentration not listed). hit rate 0.1% among 20,000. AID 651828, 2012;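 active means between 0 and 58% in either replicate with normal brightness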;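 further: 100 nL library stock added to about 12 µL; 100% = protein and probe without compound and 0% = probe alone; numbers are from one replicate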
# Target sequence (P21700 whole entry, looked up): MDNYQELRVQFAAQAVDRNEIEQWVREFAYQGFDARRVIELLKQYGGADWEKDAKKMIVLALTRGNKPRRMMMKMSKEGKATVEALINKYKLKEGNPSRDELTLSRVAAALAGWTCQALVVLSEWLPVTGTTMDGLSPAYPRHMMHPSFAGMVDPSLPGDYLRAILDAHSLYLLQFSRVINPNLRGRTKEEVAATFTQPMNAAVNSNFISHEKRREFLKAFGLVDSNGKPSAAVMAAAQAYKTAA
# * hit, by the source's call; & = joins results of further samples.
SMILES,RVFV N-RNA inh
CN(C)c1ccc(O)c2c1C[C@H]1C[C@H]3[C@H](N(C)C)C(=O)C(C(N)=O)=C(O)[C@@]3(O)C(=O)C1=C2O,95&96
Cc1cccc(NC(=O)c2ccc(S(=O)(=O)N3CCCCC3)cc2)n1,92
CCC(Sc1ccccc1C(=O)O)C(=O)O (configuration not stated),93
CNc1c(C(=O)c2ccc(OC)c(OC)c2)sc(N)c1C#N,95
Cc1ccc(OCC(=O)NS(=O)(=O)c2ccccc2)cc1,94
N#Cc1cc([N+](=O)[O-])c2sc(C(N)=O)[n+]([O-])c2c1,102&92
COc1ccc(CCNC(=O)CSc2nc(=O)[nH]c3c2CCCC3)cc1OC,92
Cn1ncc(S(=O)(=O)Cc2ccccc2)c(Br)c1=O,96
Cc1ccc2oc(-c3ccccc3Cl)nc2c1,102
Cc1cccc(-c2n[nH]n3c2nc(=O)c2ccccc23)c1,89
O=c1ccc(Cl)nn1-c1ccccc1,100
Cc1csc(SCc2cc(=O)c(OC(=O)c3ccc(S(=O)(=O)N4CCOCC4)cc3)co2)n1,97
CN(C)/C=C/C(=O)c1cccs1,91
O=C1CCCN1c1ccc(S(=O)(=O)Nc2ccc3oc4c(c3c2)CCCC4)cc1,95
O=C(C1c2ccccc2Oc2ccccc21)N1CCC2(CC1)OCCO2,99
C=CCn1c(C(C)O)nc2ccccc21 (configuration not stated),97
CCn1c(=S)[nH]c2nc3c(cc2c1=O)COC(C)(C)C3,97
Cc1nc(C)c(C(=O)O)c(-c2ccc(Cl)cc2)c1C(=O)O,96
O=C(c1c[nH]c2ccccc12)C(F)(F)F,89
O=C(NCc1ccc2c(c1)OCO2)NCc1ccc2c(c1)OCO2,95
O=C(CN1CCN(C(=O)C2COc3ccccc3O2)CC1)Nc1ccccc1 (configuration not stated),100
C/C(=N\NC(=O)c1ccc(CN2CCOCC2)cc1)c1cccs1,95
CSc1ccc(CN(CCO)Cc2ccccc2)cc1,111
CC(=O)N(Cc1ccccc1)Cc1cn(-c2ccccc2)nc1-c1cc2ccccc2o1,107
O=C(Cc1cccs1)Nc1c2c(nn1-c1ccccc1)CSC2,96
COCC(C)NC(=O)c1ccc(OC)cc1OC (configuration not stated),95
C/S(=N\S(=O)(=O)c1ccccc1)c1ncc(Cl)cc1C(F)(F)F (configuration not stated),96
FC(F)(F)c1cc(-c2noc(-c3ccc4c(c3)CCO4)n2)cc(C(F)(F)F)c1,100
COc1ccc(CNc2ccc3cn[nH]c3c2)c(OC)c1C,93
CCCCN(C(=O)c1ccccc1)c1ccccc1,91

# Shown with tabs: entries from further up
SMILES	RVFV N-RNA inh
Cc1ccc(OCC(=O)NS(=O)(=O)c2ccccc2)cc1	94
N#Cc1cc([N+](=O)[O-])c2sc(C(N)=O)[n+]([O-])c2c1	102&92
COc1ccc(CCNC(=O)CSc2nc(=O)[nH]c3c2CCCC3)cc1OC	92
Cn1ncc(S(=O)(=O)Cc2ccccc2)c(Br)c1=O	96
Cc1ccc2oc(-c3ccccc3Cl)nc2c1	102
Cc1cccc(-c2n[nH]n3c2nc(=O)c2ccccc23)c1	89
O=c1ccc(Cl)nn1-c1ccccc1	100
Cc1csc(SCc2cc(=O)c(OC(=O)c3ccc(S(=O)(=O)N4CCOCC4)cc3)co2)n1	97
CN(C)/C=C/C(=O)c1cccs1	91
O=C1CCCN1c1ccc(S(=O)(=O)Nc2ccc3oc4c(c3c2)CCCC4)cc1	95
O=C(C1c2ccccc2Oc2ccccc21)N1CCC2(CC1)OCCO2	99
C=CCn1c(C(C)O)nc2ccccc21 (configuration not stated)	97
CCn1c(=S)[nH]c2nc3c(cc2c1=O)COC(C)(C)C3	97
Cc1nc(C)c(C(=O)O)c(-c2ccc(Cl)cc2)c1C(=O)O	96
O=C(c1c[nH]c2ccccc12)C(F)(F)F	89
O=C(NCc1ccc2c(c1)OCO2)NCc1ccc2c(c1)OCO2	95
O=C(CN1CCN(C(=O)C2COc3ccccc3O2)CC1)Nc1ccccc1 (configuration not stated)	100
C/C(=N\NC(=O)c1ccc(CN2CCOCC2)cc1)c1cccs1	95
CSc1ccc(CN(CCO)Cc2ccccc2)cc1	111
CC(=O)N(Cc1ccccc1)Cc1cn(-c2ccccc2)nc1-c1cc2ccccc2o1	107
O=C(Cc1cccs1)Nc1c2c(nn1-c1ccccc1)CSC2	96
COCC(C)NC(=O)c1ccc(OC)cc1OC (configuration not stated)	95
C/S(=N\S(=O)(=O)c1ccccc1)c1ncc(Cl)cc1C(F)(F)F (configuration not stated)	96
FC(F)(F)c1cc(-c2noc(-c3ccc4c(c3)CCO4)n2)cc(C(F)(F)F)c1	100

# Given with each value named: entries from further up
canonical_smiles: C/C(=N\NC(=O)c1ccc(CN2CCOCC2)cc1)c1cccs1
  RVFV N-RNA inh: 95
canonical_smiles: CSc1ccc(CN(CCO)Cc2ccccc2)cc1
  RVFV N-RNA inh: 111

# Remaining list, next part
SMILES,RVFV N-RNA inh
CCOC(=O)c1sc2ncn(/N=C/N(C)C)c(=O)c2c1C,88
CC(NC(=O)c1ccc2c(c1)OCCO2)c1ccc2c(c1)OCO2 (configuration not stated),95
S=C(NCC1CCCO1)N1CCN(C2CCCCC2)CC1 (configuration not stated),93
COc1ccc(C2C(C(N)=O)C(=O)NC(O)(c3ccccc3)C2C#N)cc1 (configuration not stated),96
CC1=NOC2(O)CC3C(C12)C3(C)C (configuration not stated),91
CCOC(=O)C1C(=O)N(C)C2(C)CC1c1ccccc1O2 (configuration not stated),96
NC1=NC(=O)C(c2ccccc2)O1 (configuration not stated),102
CC1(C)C(c2ccccc2)=NC(c2ccccc2)N1O (configuration not stated),91
O=C(c1ccc(F)cc1)n1c(NCc2ccccc2)n[nH]c1=S,101
CS(=O)(=O)c1ccc(C(=O)Nc2ccc3sccc3c2)cc1,96
CNc1ccc2cccc(O)c2n1,99
CCc1cccc(OCCCN2CCN(C)CC2)c1,110
COc1ccc(/C=C2/N=C(SC)NC2=O)cc1OC,100
Oc1ccccc1/C=N/c1ccnn1-c1ccccc1,96
CSC1=N/C(=C\c2ccccc2O)C(=O)N1Cc1ccco1,98
CNC(=O)O/N=C1\CC(C)(C)Cc2csc(SC)c21,97
Cc1ccc2c(C#N)cc(C)cc2c1,94
CCOc1cc(/C(O)=C(\C#N)c2nc3ccccc3[nH]2)cc(OCC)c1OCC,92
Cn1c(=O)c2c(nc3n2CC=NN3)n(C)c1=O,97
CO[C@H]1C[C@H](O[C@H]2[C@H](C)[C@@H](O[C@@H]3O[C@H](C)C[C@H](N(C)C)[C@H]3OC(C)=O)[C@@H](C)C[C@@]3(CO3)C(=O)[C@H](C)[C@@H](OC(C)=O)[C@@H](C)[C@@H](C)OC(=O)[C@@H]2C)O[C@@H](C)[C@@H]1OC(C)=O,98
O=C1CC(N2CCCCC2CCO)C(=O)N1c1ccccc1 (configuration not stated),107
COC(=O)C1=C(C)NC(C)=C([N+](=O)[O-])C1c1ccccc1C(F)(F)F (configuration not stated),93
CCN1C(=O)S/C(=C/c2cccs2)C1=O,90
O=C(O)c1cn(C2CC2)c2cc(N3CCNCC3)c(F)cc2c1=O,94
CC(N)(Cc1ccc(O)c(O)c1)C(=O)O (configuration not stated),102&101
O=C1C(c2c(O)[nH]c3ccccc23)=Nc2ccccc21,95
CC1=C(C)C(=O)C(CCCCC#CCCCC#CCO)=C(C)C1=O,102&96
FC(F)(F)c1ccc(-c2n[nH]c(=S)o2)nc1,91
Cc1ccccc1NC(=O)c1cc(C)n(Cc2cccs2)c1C,93
CS(=O)(=O)N1CCN(Cc2ccccc2)CC1,99
c1ccc(C2(c3ccccc3)CC2C2=NCCN2)cc1 (configuration not stated),93
CC(C)(C)c1ccc(C(=O)Nc2ccon2)cc1,97
Cn1c2ccccc2c2nnc(SCCN3CCCCC3)nc21,102
COc1cc2c(cc1OC)C(C)N(S(=O)(=O)c1cn(C)cn1)CC2 (configuration not stated),91
Cn1c(SCCS(=O)(=O)c2ccc(Cl)cc2Cl)nnc1-c1ccco1,97
O=C(NC1CCN(C(=O)C2CCCCC2)CC1)c1ccccc1,94
COC(=O)c1cc(OC)c(OC)cc1NC(=S)N1CCN(C(=O)c2ccco2)CC1,99
C=CCn1ccc2c(OCC(N)=O)cccc2c1=O,97
COc1cc2[nH]c(=S)n(CCc3cnc[nH]3)c(=O)c2cc1OC,94
Cc1onc(-c2ccccc2)c1NC(=O)N(C)CCc1ccccn1,101
C=CCNC(=O)C1CC(=O)N(c2ccc(OCC(=O)NCc3ccccc3)cc2)C1 (configuration not stated),91
CN(C)S(=O)(=O)c1ccc(C(=O)NCC(=O)NN)cc1,97
CC(C)(C)NC(=S)NNc1c(Cl)cncc1Cl,89
CC(=O)CCCCn1cnc2c1c(=O)n(C)c(=O)n2C,89
O=C(O)CSCc1nc2ccccc2c(=O)[nH]1,92
CC1(C)C(=S)Nc2ccccc21,96
O=C(COc1coc(CN2CCc3ccccc32)cc1=O)OCc1ccccc1,92
COc1ccc(NC(=O)NC(=O)C(F)(F)F)cc1,93
O=c1c2cccnc2ncn1CCCN1CCOCC1,86
COc1ccc(C)c2sc(NN)nc12,98
# Going on with the list.
SMILES,RVFV N-RNA inh
COc1ccc(C)c2sc(=NC(=O)C(C)(C)C)n(C)c12,92
OC(CN=Cc1ccccc1)c1ccccc1 (configuration not stated),92
NC(=O)C1CCN(C2=NC(=O)/C(=C/c3cn(-c4ccccc4)nc3-c3cccs3)S2)CC1,90
Nc1nnnn1NCc1ccc(-c2ccc(F)cc2)o1,98
CN(C)C(=S)NC(C)(C)C,99
O=C1c2c(O)cc(O)cc2O[C@H](c2ccc(O)c(O)c2)[C@H]1O,102
Cc1cc(NC(=O)COc2coc(CN3CCN(c4ccc(F)cc4)CC3)cc2=O)no1,97
COC(=O)CSc1cc(C)nc(SC)n1,89
CCc1ccc(N2C(=O)/C(=C/C=C/c3ccco3)N(CC(=O)OC)C2=S)cc1,100
O=C(Nc1nccs1)C(c1ccccc1)N1CCOCC1 (configuration not stated),98
CCC(C(=O)N1CCN(c2cccc(C(F)(F)F)c2)CC1)c1ccccc1 (configuration not stated),99
COc1ccc(/C=N/N2CCN(C)CC2)cc1,95
CCOc1cc2c3c(c1)C1(OCCO1)C(=O)N3C(C)(C)CC2C (configuration not stated),100
CCOC(=O)C1CCN(CCCCOc2ccc(C#N)cc2)CC1,97
CC1=C(C#N)C(c2c[nH]c3ccccc23)C2=C(CCCC2=O)N1 (configuration not stated),94
Cc1ccc(-c2nn(-c3ccccc3)cc2CN(Cc2ccccc2)C(=O)c2ccco2)o1,95
Cc1nc2ccccc2c(=O)n1-c1ccc(F)c(NC(=O)c2ccco2)c1,88
S=C(Nc1ccccc1)N1CCNC2NCCN(C(=S)Nc3ccccc3)C21 (configuration not stated),93
O=C(CSc1ccc(-c2cccs2)nn1)c1cccs1,94
O=C(CN1C(=O)CSc2ccccc21)N/N=C/c1cccnc1,91
COCCCN=C1NS(=O)(=O)c2ccccc21,97
CN(C)/C=C/C=C1\CC/C(=C\C=C\N(C)C)C1=O,114
CC(NC(=O)c1cccs1)C(C)(C)C (configuration not stated),98
N#CCCC(=O)c1ccccc1,87
CCS(=O)(=O)c1cccc(C(=O)Nc2nc3c(s2)C(=O)CC(C)(C)C3)c1,98
CC(=O)O/N=C(\N)Cc1csc2ccc(Cl)cc12,98
NCCCCCCCCCCN,99
CC(Sc1nc(N)cc(=O)[nH]1)C(=O)Nc1cccc(Cl)c1 (configuration not stated),100
CCOC(=O)Cn1nc2sc3ccccc3n2c(=O)c1=O,96
CCOc1ccc(Nc2oc(Cc3ccccc3)nc2C#N)cc1,99
CCCNC(=O)c1ccc(COc2ccc(C)cc2)o1,104
O=C1CCc2cc(S(=O)(=O)N3CCN(c4cccc(Cl)c4)CC3)cc3c2N1CCC3,84
Cc1ccc(N2C(=O)/C(=C/c3cc(Br)c(N4CCOCC4)o3)C(=O)NC2=S)c(C)c1,107
Oc1ccc(-c2nc(-c3ccc(F)cc3)c(-c3ccncc3)[nH]2)cc1,109&95
Cc1ccc(NCn2c(=O)sc3ccccc32)cc1,95
CCC1C(=O)NCCN1C(=O)c1ccc(-c2ccccc2)cc1 (configuration not stated),96
COC(=O)CN1C(=O)S/C(=C/c2cc(C)n(C)c2C)C1=O,90
Cc1c(NC(=O)O/N=C(/N)c2ccccc2)sc2nc(-c3ccc(Cl)cc3)nn12,91
O=C1C(=O)c2ccccc2C(O)=C1C1CCC(c2ccc(Cl)cc2)CC1 (configuration not stated),100
CCN1C(=O)c2ccc(C(=O)Nc3ccc(O)cc3C)cc2C1=O,87
Cc1ccc(-c2n[nH]c(Cc3ccccc3)n2)cc1,93
CNS(=O)(=O)c1ccc(NC(=O)C2CC3C=CC2C3)cc1 (configuration not stated),99
O=C(NCc1ccccc1)c1cccnc1N1CCOCC1,92
CSc1nccc(-c2sc(SC)c(C#N)c2-c2ccccc2)n1,97
Cc1ccc(C(=O)Nc2ccc(-c3nnc(-c4ccco4)o3)cc2)cc1C,96
CCC(=O)N1CCN(c2cc(Cl)ccc2C)CC1,99
O=c1[nH]c(=O)n(C2CCCO2)cc1F (configuration not stated),94&98&94
O=c1cc(C(F)(F)F)[nH]n1-c1ccccc1,94
CC1Cc2ccccc2N1S(=O)(=O)c1ccccc1 (configuration not stated),96
CC(=O)NBr,91
# Additional entries follow.
SMILES,RVFV N-RNA inh
COC(=O)C1=C(C)c2oc(N)nc2C1c1ccc(C(C)C)cc1 (configuration not stated),90
C[C@]1(Cn2ccnn2)C(C(=O)O)N2C(=O)CC2S1(=O)=O (some centres not stated),102
CN(C)C=Nc1c(C#N)c2n(c1C(=O)c1ccc(Br)cc1)CCC2,114
COC(=O)c1cc(C#N)c(SCC(=O)C(C)(C)C)nc1C(OC)OC,92
COc1ccc(CN2CCN(Cc3ccco3)CC2)c(OC)c1OC,105
CN1C(c2ccccc2)CC(C)(O)CC1c1ccccc1 (configuration not stated),96
CCC(=O)Nc1nc2ccccc2n1CCN1CCOCC1,98
COc1cc(NC(=O)/C(=C/c2ccco2)NC(=O)c2ccc(C)c(C)c2)cc(OC)c1OC,102
CCCNC(=O)c1c(N)n(-c2ccccc2)c2nc3ccccc3nc12,96
O=C(c1cccc(-n2cnnn2)c1)N1CCOCC1,94
CSCCNC(=O)c1ccccc1N,97

# Only part of the results is shown. The share of hits here may be higher or lower than overall.
